D2 potentiator = Beta-Arrestin HTS for Positive Allosteric Modulators of the Human D2 Dopamine Receptor: Potentiators. potentiation, % (concentration not given with the values). AID 624464, 2012. D(2) dopamine receptor (Homo sapiens), P14416. actives 0.23% (n = 360,000). DiscoveRx D2 beta-arrestin cells, luminescence, 90 min; 100% = 57 uM dopamine signal; active = potentiation of 50% or more; inconclusive = 30% to 50%; inactive = 30% or less;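 also: compound concentration not given in the record; tested on top of an EC20 dose of dopamine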
Target sequence (P14416 whole entry, looked up): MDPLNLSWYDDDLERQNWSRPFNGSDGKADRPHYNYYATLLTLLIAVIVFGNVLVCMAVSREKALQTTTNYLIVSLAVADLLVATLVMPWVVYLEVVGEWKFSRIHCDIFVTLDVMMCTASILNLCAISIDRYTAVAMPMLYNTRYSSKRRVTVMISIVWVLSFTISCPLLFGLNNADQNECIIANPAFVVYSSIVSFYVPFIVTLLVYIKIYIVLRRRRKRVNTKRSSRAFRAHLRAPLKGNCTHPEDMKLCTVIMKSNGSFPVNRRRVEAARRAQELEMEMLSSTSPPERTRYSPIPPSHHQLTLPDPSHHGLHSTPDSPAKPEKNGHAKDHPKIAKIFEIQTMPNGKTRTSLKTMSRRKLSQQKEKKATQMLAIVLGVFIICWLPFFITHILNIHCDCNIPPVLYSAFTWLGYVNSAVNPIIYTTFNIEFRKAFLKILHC
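PathHunter D2 cells, attached overnight at 37 deg C, received compound in DMSO plus dopamine at EC20 (50 nM final) for 90 min at 37 deg C. Beta-arrestin recruitment was read as luminescence after 1 h with detection reagent at ambient temperature.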
TRPML1 agonist = qHTS for Agonists of the Human Mucolipin Transient Receptor Potential 1 (TRPML1) | activation, % (concentration not given with the values) | Mucolipin-1 (Homo sapiens), Q9GZU1 | TRPML1-expressing cells, Ca2+ dye fluorescence, FDSS; host cell line not named in the record; reference of the full effect not given here | actives 0.12% (n = 410,000); in the data active = activation above about 50%; inconclusive = about 30% to 50%; inactive = below about 30%; also: 0% is about no effect; the text of the record puts the active cut at 80%
Target sequence (Q9GZU1 whole entry, looked up): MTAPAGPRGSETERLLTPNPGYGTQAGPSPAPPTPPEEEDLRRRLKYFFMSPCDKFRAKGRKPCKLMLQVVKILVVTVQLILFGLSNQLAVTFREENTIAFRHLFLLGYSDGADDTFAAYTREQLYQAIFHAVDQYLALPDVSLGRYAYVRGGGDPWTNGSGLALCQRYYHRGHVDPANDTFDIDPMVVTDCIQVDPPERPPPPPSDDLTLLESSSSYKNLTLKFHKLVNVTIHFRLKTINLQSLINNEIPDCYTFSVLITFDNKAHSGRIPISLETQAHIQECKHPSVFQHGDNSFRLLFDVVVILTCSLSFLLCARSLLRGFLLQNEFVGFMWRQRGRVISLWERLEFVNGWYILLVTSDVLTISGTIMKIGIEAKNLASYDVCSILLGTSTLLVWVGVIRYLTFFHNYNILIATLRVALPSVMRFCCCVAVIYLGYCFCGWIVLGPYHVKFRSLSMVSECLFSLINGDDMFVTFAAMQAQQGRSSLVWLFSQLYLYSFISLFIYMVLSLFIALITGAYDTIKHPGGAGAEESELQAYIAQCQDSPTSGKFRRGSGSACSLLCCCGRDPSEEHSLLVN
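Agonist activity was taken from a 110 s kinetic Ca2+ dye read on the FDSS after pinning compounds onto TRPML1-DL cells. The cells were seeded at 1,500/well with Tet inducer, incubated about 16 h, then dye-loaded at room temperature.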
TRPML1 inh = qHTS for Inhibitors of the Human Mucolipin Transient Receptor Potential 1 (TRPML1) | TRPML1-inducible cells, Ca2+ dye fluorescence, FDSS; stronger effect = lower value; inhibition of EC80 agonist-evoked calcium signal | activity change, negative = inhibition, % (no concentration beside the values) | actives 0.02% (n = 390,000) | AID 624415, 2012; in the data active means activity change below about -50%; inconclusive means about -30% to -50%; inactive means above about -30%;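 also: stimulus is agonist 54-4 at its EC80 concentration; % is scaled to controls: 0 for no effect and ±100 for the full control effect; compound concentration not given in the record; the text of the record puts the active cut at -80%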
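TRPML1-DL cells, Tet-induced overnight (~16 h, 37 °C) at 1,500 cells/well, were loaded with Ca8 no-wash dye plus quencher for 45-90 min at room temperature. Compounds were pinned during FDSS kinetic reading; agonist 54-4 at EC80 (4 uM final) then added.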
PINK1 modulator = A Quantitative High throughput Screen to Identify Chemical Modulators of PINK1 Expression; PINK1 immunofluorescence, high-content cytometry, 24 h; Potency, µM (highest dose often 76.6 µM), inactives show at the highest dose activation (PINK1 increase), hits mostly activators; actives 0.2% (n = 410,000); AID 624263, 2012; active = well fitted activation curve with a large enough effect; inconclusive = small, poorly fitted or top-dose-only effect; inactive = flat fitted curve, though single readings scatter; cell line not stated here;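 also: potency is read from the fitted curve at half-maximal effect; % of control where 0% means no effect; nearly all actives have a fitted effect of over 65% in size; a mitochondrial uncoupler was the plate control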
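Measures PINK1 amount and localization on or inside mitochondria by immunofluorescence. Stable cells get compounds at 5 concentrations for 24 hours before fixation and staining; CCCP controls included.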
Six1-Eya2 blk = qHTS Assay for Inhibitors of the Six1/Eya2 Interaction; Homeobox protein SIX1 (Homo sapiens) + Protein phosphatase EYA2 (Homo sapiens), …; AlphaScreen GST-Six1/His-Eya2 binding, biochemical; stronger effect = lower value; control for the full effect not named in the record; activity change, % (concentration not given with the values); actives 0.56% (n = 360,000); AID 651725, 2012; in the data active = activity change below about -65%; inconclusive = about -30% to -65%; inactive = above about -30%; also: % is scaled to controls: 0 for no effect and ±100 for the full control effect
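AlphaScreen with GST-Six1 and His-Eya2 (5X mix: 250 nM and 500 nM), glutathione donor and nickel acceptor beads; buffer 50 mM Tris pH 8.0, 300 mM NaCl, 1 mM TCEP; 1 h at 37 C in the dark.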
D2 agonist = Beta-Arrestin HTS for Positive Allosteric Modulators of the Human D2 Dopamine Receptor: Agonists. D(2) dopamine receptor (Homo sapiens), P14416. DiscoveRx PathHunter D2 beta-arrestin, luminescence, 90 min; 100% = 57 uM dopamine signal. activation, % (concentration not given with the values). actives 0.084% (n = 360,000). AID 624465, 2012; in the data active = activation above about 40%; inconclusive = about 15% to 40%; inactive = below about 15%; also: compound concentration not given in the record; the text of the record calls up to 30% inactive
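DiscoveRx PathHunter D2 beta-arrestin cells (2,100/well) attached overnight, then compound-stimulated 90 min at 37 C in HBSS/10 mM HEPES/0.1% Tween-20 buffer; beta-galactosidase complementation read by luminescence after 1 h at ambient temperature. Dopamine 57 uM final (EC100) as control.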
Active calls of the source: *; ? = inconclusive; . = no result given; & = joins results of further samples; [ ] = dose if it differs, or a comment.

Values run as follows: D2 potentiator	TRPML1 agonist	TRPML1 inh	PINK1 modulator	Six1-Eya2 blk	D2 agonist
> O=C(COC(=O)c1ccccc1Nc1cccc(C(F)(F)F)c1)NCc1ccco1
→ -14.0	0.5	32.9	4.6%	-6.6	-1.0
> COC(=O)c1cc(CSc2nnc(-c3ccccc3)c(-c3ccccc3)n2)oc1C
→ -7.9	0.0	-5.3	7.7%	-25.5	-4.8
> Cc1cc(C)c(S(C)(=O)=O)c(Oc2cccc(C(F)(F)F)c2)n1
→ -2.1	2.6	16.9	1.5%	0.5	-1.1
> COc1ccc(OC)c(Nc2cc(-c3ccccc3)nc(N)n2)c1
→ -9.8	0.3	18.8	5.5%	-27.1	-2.7
> CCOC(=O)c1c(C)n(CC(COC(C)=O)OC(C)=O)c2ccc(OC(C)=O)cc12 (configuration not stated)
→ 2.6	-0.6	-1.0	1.5%	2.0	2.5
> O=C(CSc1nc2ccccc2n1S(=O)(=O)c1cccc([N+](=O)[O-])c1)NCc1cccs1
→ 9.3	-0.2	-6.8	-0.4%	12.9	-2.3
> CCC(C)OC(=O)C(C)Oc1ccc(-c2ccccc2)cc1 (configuration not stated)
→ -14.9	-0.2	-9.5	9.0%	56.8	-7.0
> CC(C)Oc1ccc(F)cc1-c1cc(C(=O)Nc2ccccc2)[nH]n1
→ -3.2	-0.5	.	4.4%	0.7	4.3
> CCOC(=O)C1=C(CN2CCC(C)CC2)NC(=O)NC1c1ccc(OC(C)C)cc1 (configuration not stated)
→ .	-0.5	16.4	1.0%	.	.
> O=C(NCc1ccccn1)c1cc(Cl)ccc1OCc1ccccc1
→ -14.3	3.1	7.8	1.1%	11.1	4.6
> COc1ccc(C(=O)Oc2c(Sc3ccccc3)c(C)nn2-c2ccccc2)c(OC)c1
→ .	1.4	-10.3	5.2%	.	.
> COc1ccc2c(c1OC)C(=O)N1N=C(c3ccc(-c4ccccc4)cc3)CC21 (configuration not stated)
→ -10.5	1.5	8.6	7.3%	8.7	-3.0
> COc1ccccc1OCc1nnc(-c2ccccc2)o1
→ .	1.1	6.5	0.4%	.	.
> O=C(CSc1nc2ccccc2c(=O)n1CC1CCCO1)NCc1ccccc1 (configuration not stated)
→ 13.5	-1.1	20.2	-1.3%	3.7	9.2
> COc1ccc(CCNC(=O)c2ccc(CNc3c(N4CCOCC4)c(=O)c3=O)cc2)cc1OC
→ -2.6	0.8	3.7	2.9%	11.1	2.2
> CCOC(=O)C1CCCN(C(=O)c2cc(COc3ccc(C)nc3)on2)C1 (configuration not stated)
→ -16.3	-0.2	-4.6	2.2%	3.5	0.4
> O=C(CCS(=O)(=O)c1cccc2nonc12)N1CC(=O)N(CCc2ccccc2)C(=O)C1
→ -19.9	-0.2	-5.4	1.3%	-1.1	-2.4
> Cc1cc(C)c(NC(=O)CSc2nc3c([nH]c4ccccc43)c(=O)n2C)c(C)c1
→ .	-0.2	-7.1	0.2%	.	.
> CC(C)CNC(=O)C1CC(=O)OC12CCCCC2 (configuration not stated)
→ -9.4	-0.6	7.6	-0.8%	12.5	-1.2
> COc1ccccc1/C=C1\SC(=S)N(CCC(=O)Nc2cccc(O)c2)C1=O
→ -1.7	6.8	4.6	0.7%	-15.7	-4.4
> CCc1cccc(NC(=O)Cn2c(=O)n(CCc3ccc(OC)c(OC)c3)c(=O)c3ccccc32)c1
→ .	2.2	3.8	4.0%	.	.
> Cc1ccc(OCC(=O)N/N=C/c2cccc3cccnc23)cc1
→ -12.9	1.9	-23.6	-0.2%	-77.3*	-6.9
> COc1cccc(NC(=O)CN(C)C(=O)CNC(=O)c2ccccc2F)c1
→ -0.6	0.7	24.1	0.1%	-3.7	1.3
> CCOC(=O)c1cc(CC)sc1/N=C/C1=C(O)CCCC1=O
→ -20.9	0.0	-17.5	9.8%	-3.0	-2.1
> COc1ccc2nc(SCC(=O)c3ccco3)[nH]c2c1
→ -1.4	-0.5	-0.3	-4.4%[38.3 µM]	-1.2	-0.8
> CCN(CC)c1ccc(NC(=O)COC(=O)CCC(=O)c2cccs2)cc1
→ -2.0	-1.0	-5.7	1.0%	-25.6	-4.9
> CCN(CC)CCNc1nc2c(c(=O)[nH]c(=O)n2C)n1CCCc1ccccc1
→ -4.2	0.4	10.3	1.3%	1.2	-3.5
> CCN(CC)C(=S)Nc1ccc(Cl)c(Cl)c1
→ -22.3	1.4	8.6	4.1%	1.7	-5.9
> Cn1c(=O)c(=O)n(C)c2cc(S(=O)(=O)N3CCN(Cc4ccccc4)CC3)ccc21
→ -14.2	0.0	10.2	1.1%	7.7	-0.8
> CC1(C)Cc2cccc(OCC(=O)NC3CC3)c2O1
→ -11.3	0.8	7.9	-3.7%	1.9	-3.3

Structural class: the compounds so far with a furan ring, fused or not.
Values run as follows: D2 potentiator	TRPML1 agonist	TRPML1 inh	PINK1 modulator	Six1-Eya2 blk	D2 agonist
> O=C(COC(=O)c1ccccc1Nc1cccc(C(F)(F)F)c1)NCc1ccco1
→ -14.0	0.5	32.9	4.6%	-6.6	-1.0
> COC(=O)c1cc(CSc2nnc(-c3ccccc3)c(-c3ccccc3)n2)oc1C
→ -7.9	0.0	-5.3	7.7%	-25.5	-4.8
> COc1ccc2nc(SCC(=O)c3ccco3)[nH]c2c1
→ -1.4	-0.5	-0.3	-4.4%[38.3 µM]	-1.2	-0.8

Remaining list, next part
Values run as follows: D2 potentiator	TRPML1 agonist	TRPML1 inh	PINK1 modulator	Six1-Eya2 blk	D2 agonist
> O=C(Cc1ccccc1)NC(=S)Nc1ccc(N2CCCCC2)cc1
→ -12.3	0.9	-1.4	0.7%	?	-1.7
> CCCn1c(SCC(=O)Nc2cc(S(=O)(=O)N(C)C)ccc2OC)n[nH]c1=O
→ -12.7	1.4	6.6	1.2%	-1.6	-2.9
> O=C(c1ccc(-c2cc3ccccc3oc2=O)cc1)N1CCN(c2ccc(Cl)cc2[N+](=O)[O-])CC1
→ -4.6	-0.2	-0.8	1.0%	-19.5	1.5
> O=C(NC(=S)NNC(=O)c1cnccn1)c1ccc(F)cc1
→ 6.9	2.0	-14.1	-1.0%	-91.9*	-4.6
> O=C(CSc1n[nH]c(-c2cccnc2)n1)Nc1ccccc1
→ 1.6	0.4	-13.2	1.3%	-1.6	-1.9
> CN(c1ccc(C(=O)Nc2ccc(CC#N)cc2)cc1)S(C)(=O)=O
→ 0.2	-0.1	-11.9	1.6%	-7.3	-2.8
> COc1cccc(NC(=O)COC(=O)CNC(=O)C2CCCCC2)c1
→ -2.4	0.0	-5.8	0.3%	6.2	2.8
> COc1cccc(C(c2c(O)cc(C)n(Cc3ccco3)c2=O)N2CCC(C)CC2)c1 (configuration not stated)
→ .	0.0	3.0	0.9%	.	.
> COc1ccc(CC(=O)n2[nH]c(=O)cc(C)c2=O)cc1OC
→ 0.4	-0.3	3.4	4.4%	-5.5	4.6
> COC(=O)N/N=C/c1ccccc1OCc1ccccc1
→ -19.4	1.8	-17.7	4.2%	-0.2	-2.4
> COc1ccc(CC(=O)NNC(=O)c2ccc(SCc3cc(F)ccc3F)c([N+](=O)[O-])c2)cc1
→ -2.9	0.9	-0.5	?	1.8	1.1
> CCn1c(SCC(=O)Nc2cc(C)ccc2C)nnc1-c1cnccn1
→ -0.5	0.6	1.3	-3.8%	4.7	0.3
> CCc1nn(CC(=O)NCc2ccccc2Cl)c(=O)c2cccn12
→ -10.7	-1.0&1.5	-13.4&7.4	1.8%&-1.5%	1.6	-11.8
> OC(COc1ccccc1)CSc1ncn[nH]1 (configuration not stated)
→ -8.4	-0.3	-6.3	7.2%[38.3 µM]	4.4	0.2
> O=C1c2cccc(OCC(=O)N3N=C(c4cccs4)CC3c3ccc(F)cc3)c2CCN1Cc1cccnc1 (configuration not stated)
→ -35.0	3.2	12.0	-0.7%	-18.9	-1.8
> O=C(O)CN1C(=O)CC(Cc2ccc(Cl)cc2)C1=O (configuration not stated)
→ -11.4	-0.2	-4.0	0.6%[38.3 µM]	3.0	-1.0
> CCc1noc(C)c1C(=O)OCC(=O)c1ccc(NC(=O)CC(C)C)cc1
→ -14.4	2.1	31.5	0.2%	16.4	-1.4
> Cn1cc(CN2CCCC(CNS(=O)(=O)c3cccc4cccnc34)C2)cn1 (configuration not stated)
→ -11.7	0.3	-8.6	-2.5%	9.8	-3.6
> CC1(C)OC(=CC=Nc2ccc(Cl)cc2)OC1(C)C
→ -5.5	-0.2	48.6	3.5%	9.2	1.1
> CCCCOC(=O)C1=C(C)NC(=O)NC1c1ccc(N(C)C)cc1 (configuration not stated)
→ 25.9	.	.	0.9%	-1.3	2.8
> COc1ccc(OC)c(C2NC(=O)NC(C)=C2C(=O)OCc2ccccc2)c1 (configuration not stated)
→ -5.3	.	.	0.1%	7.5	0.2
> O=C(Nc1ccc(NC(=O)C23CC4CC(CC(C4)C2)C3)cc1)c1cc(F)c(F)cc1Cl
→ -11.7	1.3	12.6	5.0%	14.0	-2.8
> COc1ccc(CC(=O)N2CCC(Nc3nc4ccccc4n3Cc3ccc(F)cc3)CC2)cc1
→ -12.2	0.2	-1.7	-1.2%	-11.4	-1.9
> O=C(Cn1ncc2c3ccccc3n(Cc3ccccc3)c2c1=O)NCc1ccco1
→ -4.1	-0.5	14.5	5.8%	0.5	-0.5
> O=C(COc1coc(CN2CCc3ccccc3C2)cc1=O)Nc1cccc(F)c1
→ -30.7	0.3	-2.7	4.2%	1.0	-4.0
> O=C(Cn1c(=O)n(CCc2ccccc2)c(=O)c2c3c(sc21)CCCC3)Nc1ccc(F)c(F)c1
→ .	-0.4	-17.6	4.0%	.	.
> Cc1ccc(CNC(=O)CN(Cc2ccccc2)S(C)(=O)=O)cc1
→ -8.7	-0.6	-1.1	-1.3%	11.8	-3.0
> CC(C)(C)c1ccc(C(=O)/C=C2\NC(=O)CS2)cc1
→ 4.6	0.1	0.7	4.0%	-2.0	-1.3
> Cc1cc(/C=N/NC(=O)CC2(C)OCCO2)c(C)n1-c1ccc(Cl)c(Cl)c1
→ -21.6	3.3	-6.4	7.8%	-18.6	-3.0
> Cc1ccc(S(=O)(=O)NC2CC2)cc1[N+](=O)[O-]
→ -2.5	0.4	35.3	0.0%	3.6	-2.6
> Cc1cc(C)n2c(SCC(C)C)nnc2n1
→ -5.9	1.3	5.6	?	3.7	11.1
> Cc1onc(-c2c(F)cccc2Cl)c1C(=O)N1C=CC(C(F)(F)Cl)=NCC1
→ -2.5	0.1	-4.0	2.5%[38.3 µM]	4.9	-1.5
